Screening results: PubChem BioAssay, National Center for Advancing Translational Sciences (NCATS)
HPGD block – HPGD (human) dehydrogenase inhibition | P15428 | actives 4.3% (n = 150,000) | purified HPGD, NADH fluorescence kinetic, PGE2 substrate | Potency, µM, for inactives: at the highest dose activity change, negative = inhibition, usual class: inhibitors; active = well fitted inhibition curve with a large enough effect (not every such curve was filed as active); inconclusive = small, poorly fitted or top-dose-only effect, or another doubt; inactive = no such curve, though single readings can be large or run the other way;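 note: top concentration of the series not given in the record; plate controls included wells without enzyme; inactives centre near -10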
Target sequence (P15428 whole entry, looked up): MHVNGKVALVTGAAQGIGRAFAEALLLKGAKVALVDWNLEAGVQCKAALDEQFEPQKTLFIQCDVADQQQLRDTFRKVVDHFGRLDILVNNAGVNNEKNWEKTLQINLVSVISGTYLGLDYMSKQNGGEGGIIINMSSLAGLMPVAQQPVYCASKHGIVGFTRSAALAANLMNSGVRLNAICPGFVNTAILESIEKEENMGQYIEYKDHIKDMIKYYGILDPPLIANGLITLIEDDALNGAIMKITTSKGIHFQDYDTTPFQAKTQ
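20 nM HPGD preincubated 15 min at room temperature with compound in 50 mM Tris-HCl pH 8, 0.01% Tween 20. Started with 1 mM NAD+ and 30 uM prostaglandin E2; NADH fluorescence (360/450 nm) read 5 times over 30-s intervals, last minus first.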
The depositor's hits bear a star; ? = inconclusive; [ ] = another dose, or the depositor's remark. % is set by controls: 0 for no effect and ±100 for the full control effect; potency is the fitted concentration of half-maximal effect.

HPGD block,molecule
-4%,CCCCC/C=C\C\C=C/C=C/C=C/[C@@H](SCC(NC(C)=O)C(=O)O)[C@@H](O)CCCC(=O)O (some centres undefined)
-24%,O=C(Nc1ccn(Cc2ccccc2)n1)c1cccc(Cn2cc([N+](=O)[O-])cn2)c1
-17%,COc1ccc2c(c1)cc(C(O)c1ccccn1)n2S(=O)(=O)c1ccccc1 (centres undefined)
20µM*,Clc1ccccc1-c1nnc2sc(C3COc4ccccc4O3)nn12 (centres undefined)
-2%,CCN(c1ccccc1)S(=O)(=O)c1cc(OC)ccc1OC
-10%,CCc1cccc(C)c1NC(=O)CSc1nnc(-c2cc3cc(Br)ccc3o2)n1CC
-11%,Cc1cccc(OCC(O)CN2C(C)(C)CC(O)CC2(C)C)c1C (centres undefined)
-10%,c1ccc(N2CC[N+]3(CCCC3)CC2)nc1

The list goes on, starting with the last 6 of the part before.
HPGD block,molecule
-17%,COc1ccc2c(c1)cc(C(O)c1ccccn1)n2S(=O)(=O)c1ccccc1 (centres undefined)
20µM*,Clc1ccccc1-c1nnc2sc(C3COc4ccccc4O3)nn12 (centres undefined)
-2%,CCN(c1ccccc1)S(=O)(=O)c1cc(OC)ccc1OC
-10%,CCc1cccc(C)c1NC(=O)CSc1nnc(-c2cc3cc(Br)ccc3o2)n1CC
-11%,Cc1cccc(OCC(O)CN2C(C)(C)CC(O)CC2(C)C)c1C (centres undefined)
-10%,c1ccc(N2CC[N+]3(CCCC3)CC2)nc1
1%,CCOC(=O)c1c(C)c(C(=O)NCc2cccnc2)c(C)n1C
?,C=CCn1c(-c2ccccc2)c[nH]c1=S
-10%,COc1ccc(CCNC(=O)C2CC2)cc1OC
-5%,Cc1sc2ncnc(SCC#N)c2c1C
?,CCN1CCN(C(=O)c2cc3nc(-c4ccccc4)cc(C(F)(F)F)n3n2)CC1
242%[activator],O=C(N/N=C/c1ccc2c(c1)OCO2)c1cc(-c2ccccc2)nc2ccccc12
-19%,Clc1ccc(-c2csc3ncnc(N4CCc5ccccc5C4)c23)cc1
-5%,Cc1cccc(N2CCN(C(=O)Cc3c(C(=O)O)[nH]c4ccc(Cl)cc34)CC2)c1C

Filtered by structure, those above with a thiophene ring, fused or not (2)
HPGD block,molecule
-5%,Cc1sc2ncnc(SCC#N)c2c1C
-19%,Clc1ccc(-c2csc3ncnc(N4CCc5ccccc5C4)c23)cc1

Further results follow.
HPGD block,molecule
3.5µM*,COc1cc(N=c2ssnc2Cl)c(OC)cc1Cl
-4%,Cc1nc(CCNC(=O)COc2ccccc2)cs1
-9%,CCCCNc1nc(CC(C)=O)ns1
-15%,CCOc1cc(/C=N/NC(=O)c2ccncc2)cc(Cl)c1OS(C)(=O)=O
-13%,Cc1ccc(NC(=O)c2ccoc2C)cc1C
-5%,CCOC(=O)c1cn(Cc2c(C)c(C)c(C)c(C)c2C)nn1
-5%,CN(C)CCNc1nc2c(c(=O)n(C)c(=O)n2C)n1C
-5%,COc1ccc(C)cc1N(CC(=O)Nc1cccc(N(C)S(C)(=O)=O)c1)S(C)(=O)=O
-13%,CCOc1cc(/C=N/NS(=O)(=O)c2ccccc2)ccc1OS(=O)(=O)c1ccc(C)cc1
-14%,CSc1ccc(/C=C(\C#N)C(=O)NC2CCCCC2C)cc1 (centres undefined)
-13%,CCOC(=O)N1CCN(CC(=O)c2c(C)[nH]c3ccccc23)CC1
-2%,COc1ccc(CNC(=O)C(=O)NCC2CCCO2)cc1 (centres undefined)
-11%,Nc1c(NCc2ccccc2)c(=O)[nH]c(=O)n1Cc1ccccc1
-6%,O=c1cc(COn2nnc3ccc(C(F)(F)F)cc32)nc2sccn12
-2%,CCN1CCN(C2=C(Cl)C(=O)N(Cc3ccccc3)C2=O)CC1
4%,O=C1C2CCCN2C(c2ccc(F)cc2)N1c1cccc(Cl)c1 (centres undefined)
-9%,Cn1cccc1C(=O)N1CCC2(CCCN(Cc3ccccc3)C2)CC1
-3%,COc1ccc(C(=O)N2CCN(C3CCC(c4ccccc4)CC3)CC2)cc1OC (centres undefined)
-2%,Cc1ccc(C(N)=S)c(C)c1
-9%,CN1CCC(NC(=O)Cc2c(F)cccc2Cl)CC1
-24%,Cc1ccc(S(=O)(=O)N2CCCCC2)cc1NC(=O)c1ccc2ccccc2n1
-13%,O=C(O)CCCC(=O)N1N=C(c2ccccc2)CC1c1ccc2nccnc2c1 (centres undefined)
-3%,CCOC(=O)C1=C(C)Nc2ncnn2C1c1cc(OC)ccc1OC (centres undefined)
1%,COCCCNC(=O)NC(=O)c1ccccc1
-11%,CCCCCCOc1ccc(OC(=O)c2ccncc2)cc1
-16%,O=C(NCc1cccs1)c1cc(-c2cccc(Cl)c2)on1
-13%,O=C(Nc1nnc(-c2ccccc2Cl)o1)c1ccco1
-23%,CCOc1cc(/C=N/O)ccc1OS(=O)(=O)c1ccc(C)cc1
-15%,CCOc1ccc(NC(=S)Nc2cccc3cnccc23)cc1
-11%,Cc1nn(-c2ccccc2Cl)c(Cl)c1/C=C(\C#N)C(N)=O
-4%,O=C(CSCc1ccc(Cl)cc1Cl)Nc1nccs1
-6%,COc1ccc(NC(=O)CS(=O)CC(=O)Nc2ccc(OC)c(OC)c2)cc1 (centres undefined)
-16%,COn1c(-c2ccccc2)nc2c1CCc1c-2no[n+]1[O-]
-22%,N#C/C(=C\c1c[nH]c2ccccc12)C(=O)Nc1ncc(Cc2ccc(Cl)cc2Cl)s1
-8%,CCCCn1c(SCC(=O)NCc2ccco2)nnc1-c1ccoc1C
-4%,COC(=O)CSc1nnc(SCc2ccccc2)s1
-9%,COc1ccc(CCNC(=O)c2cccnc2)cc1OC
-7%,Cc1nn(-c2ccccc2)c2c1C(c1cccc([N+](=O)[O-])c1)N(c1ccccc1)C(=O)N2 (centres undefined)
-14%,CCc1c(C)nc(N)n2c(SCC(=O)Nc3ccccc3OC)nnc12
?,Cn1cccc1C(=O)OCc1cc(Cl)cc2c1OCOC2
14µM*,O=C(c1cc(O)c(O)c([N+](=O)[O-])c1)c1ccccc1F
-15%,COc1ccccc1/C=C/C=N/NC(=O)c1ccncc1
-3%,C[N+](C)(CCCCCC[N+](C)(C)CCCN1C(=O)c2ccccc2C1=O)CCCN1C(=O)c2ccccc2C1=O
?,Oc1cccc2c(NC(=S)Nc3ccc(SC(F)F)cc3)cccc12
-11%,Cc1cc(NS(=O)(=O)c2ccc(NC(=O)Cc3cccs3)cc2)no1
?,CCCCn1c(-c2csc3ccccc23)n[nH]c1=S
-14%,Cc1noc(C)c1C(=O)NCc1ccco1
-4%,CCOC(=O)C1(S(=O)(=O)c2ccc(Cl)cc2)CCN(Cc2ccccc2)CC1
-6%,O=C(Nc1ccccc1)N1CCC2(CC1)CCN(C(=O)c1cnccn1)CC2
-7%,O=S(=O)(NC1CCCCC1NCc1ccco1)c1ccc(Cl)cc1 (centres undefined)
-24%,Cc1c(Cl)cnc(NC(=O)COC(=O)c2cccc(S(=O)(=O)N3CCc4ccccc4C3)c2)c1Cl
-6%,Cn1c(NCCCN2CCOCC2)nc2c1c(=O)n(Cc1ccc(Cl)cc1Cl)c(=O)n2C
-15%,CC(=O)N[C@@H](C(=O)O)C(C)(C)SN=O
-21%,COc1cc(S(=O)(=O)N2CCC(c3nc4ccccc4s3)CC2)ccc1S(=O)(=O)NC1CCCC1
-16%,CCOC(=O)C(NC(=O)c1ccccc1)=C1C=C(C)OC(C)=C1
4%,COc1cccc(NC(=O)Cn2c(SCC(=O)N3CCOCC3)nc3ccccc32)c1

Some values from the entries so far:
HPGD block, COc1cc(S(=O)(=O)N2CCC(c3nc4ccccc4s3)CC2)ccc1S(=O)(=O)NC1CCCC1 stands at -21%
HPGD block, Cn1c(NCCCN2CCOCC2)nc2c1c(=O)n(Cc1ccc(Cl)cc1Cl)c(=O)n2C stands at -6%
HPGD block, COc1cccc(NC(=O)Cn2c(SCC(=O)N3CCOCC3)nc3ccccc32)c1 stands at 4%
HPGD block, CC(=O)N[C@@H](C(=O)O)C(C)(C)SN=O stands at -15%
HPGD block, CCOC(=O)C(NC(=O)c1ccccc1)=C1C=C(C)OC(C)=C1 stands at -16%
HPGD block, Cc1c(Cl)cnc(NC(=O)COC(=O)c2cccc(S(=O)(=O)N3CCc4ccccc4C3)c2)c1Cl stands at -24%

The list continues:
HPGD block,molecule
-22%,Cn1c(/C(C#N)=C2/CCCCCN2)nc2ccccc21
-6%,COc1ccc2c(c1)-c1c(sn(-c3ccc(OC)c(OC)c3)c1=S)C(C)(C)N2
-8%,COc1ccc(C(NC(=O)c2ccccc2F)NC(=O)c2ccccc2F)cc1
-9%,Cc1cc(Cl)ccc1OCC(=O)NC(=S)Nc1ccccc1N1CCOCC1
-4%,COc1ccc(NC(=O)CSc2nnc(Cn3c(=O)sc4ccccc43)n2C)cc1
-6%,Cc1cccc(CNc2nc(-c3ccccc3CN(C)C)nc3ccccc23)c1
-8%,CCOC(=O)C(C)Sc1nnc(-c2c[nH]c3ccccc23)n1C (centres undefined)
-23%,NS(=O)(=O)c1ccc(-n2ncc3c(=O)[nH]c(SCC(=O)Nc4nccs4)nc32)cc1
-9%,CN(C)CCn1c(=O)n(Cc2ccco2)c(=O)c2c3c(sc21)CCCCC3
-8%,CCOCCCNc1nc2c(c(=O)n(C)c(=O)n2C)n1CCCc1ccccc1
2%,O=C(c1ccccc1)N(NC(=O)C(O)(c1ccccc1)c1ccccc1)c1cccc(F)c1
-8%,O=C(c1ccc(O)cc1)c1ccc(C(=O)O)c(C(=O)O)c1
-3%,O=C(CN1CCC(O)CC1)N1c2ccccc2C=Cc2ccccc21
-5%,CC(C)C(=O)Nc1cccc(C(=O)Nc2ccc3c(c2)OCO3)c1
?,C=CCNC(=O)/C(C#N)=C/c1ccccc1OCc1ccc(C(=O)OC)cc1
-13%,CC(=O)Nc1ccc(NC(=O)Cc2ccc(S(=O)(=O)N3CCCCC3)s2)cc1
-4%,CCOc1ccc(NC(=O)CSc2nnc(C)n2Cc2ccccc2)cc1
-10%,CCOc1ccc(-n2c(COc3ccc(C)cc3)nnc2SCC(N)=O)cc1
-12%,CC(C)(C)NC(=O)Nc1ccccc1C(N)=O
-3%,CC(C)N=c1cc2n(-c3ccc(Cl)cc3)c3ccccc3nc-2cc1Nc1ccc(Cl)cc1
?,COc1ccc(CC(=O)OCC(=O)N2N=C(c3ccccc3)CC2c2ccc(OC)cc2)cc1 (centres undefined)
-6%,Cc1ccc(C)c(NC(=O)c2sc(Cl)nc2-c2ccccc2)c1
-6%,O=S(=O)(Cc1cc(-c2ccc(Cl)cc2)no1)c1ccccc1
?,CCOC(=O)c1c(-c2ccc(C)s2)csc1NC(=O)c1cccs1
-10%,CC1(C)NC(=O)N(CCCOc2ccccc2Br)C1=O
?,O=c1c2c(nc3c(-c4cccc5ccccc45)c[nH]n13)CCC2
-11%,CC(=O)Nc1ccc(N2C(C(C)=O)=NN(c3ccccc3)C2c2cccs2)cc1 (centres undefined)
?,Cc1c(C(=O)N(C)C)sc2nc(-c3ccccn3)[nH]c(=O)c12
-3%,O=C(CNC(=O)c1cccs1)NCC(=O)OCc1cccc(Cl)c1
-2%,Cc1occc1C(=O)Nc1nnc(C2CCCCC2)s1
-8%,CC1=CC(C)(C)n2c(O)c(N=N)c3cc(C)cc1c32
-14%,Cc1cc(C(=O)CSc2nnnn2C)c(C)n1-c1cccc(F)c1
-5%,COc1ccc(C2C(=O)N(CCc3ccccc3)CC(=O)N2C2CCCCC2)cc1 (centres undefined)
-8%,CN(C)S(=O)(=O)c1cccc(NC(=O)COC(=O)CCc2nc3ccccc3s2)c1
-8%,CC1CC(C)CN(c2ccc(C(=O)OCC(=O)NC3CCCc4ccccc43)cc2[N+](=O)[O-])C1 (centres undefined)
-7%,O=C(COc1ccc(CO)cc1)Nc1ccc(F)cc1
0%,Cc1cccc(N2CCN(C(=O)CN3CCOc4ccccc43)CC2C)c1 (centres undefined)
-11%,Cc1cc(NC(=O)c2ccc(C)s2)n(-c2ccccc2)n1
-3%,CCN(c1ccccc1)S(=O)(=O)c1ccc(C(=O)Nc2nccs2)cc1
-4%,Cc1ccc(-n2nnc3c(=O)n(Cc4cc(C)ccc4C)cnc32)cc1
-8%,Cc1ccc(-c2cc(C(=O)NCCCN3CCOCC3)no2)cc1
-3%,O=C(c1cn(-c2ccccc2)nc1-c1cccs1)N1CCOCC1
-9%,O=C(O)CCCCCN1C(=O)c2ccc(C(=O)O)cc2C1=O
-11%,CCn1c(N2CCN(C(=O)Nc3ccc(F)cc3)CC2)nc2ccccc21
-22%,O=C(NCc1cccc(Cl)c1)c1cccc(C(F)(F)F)c1
-27%,C=CCn1c(SCc2cccc(C#N)c2)nnc1-c1ccccc1O
?,CCC(=O)Nc1cccc(C(=O)/C=C/c2cc(Br)ccc2OC)c1
-18%,O=C(CSc1ncn[nH]1)NC12CC3CC(CC(C3)C1)C2
-23%,CC(C)CNS(=O)(=O)c1ccc(OCC(=O)Nc2ccc3c(c2)OCCO3)cc1
?,Cc1ccc(-c2nc3c(cnn3-c3ccccc3)c(=O)o2)cc1
-19%,Cc1cc(C)n(-c2ccc(C(=O)OC(C)C)cc2)n1
-40%,O=C/C(=C\Nc1ccccn1)c1nc2cc(Cl)ccc2o1
-22%,CCOc1ccc(S(=O)(=O)Nc2ccc(C(=O)N/N=C(\C)c3ccc(-n4ccnc4)cc3)cc2)cc1
-8%,Cc1ccc(N(C(=O)c2ccncc2)C2C=CS(=O)(=O)C2)cc1 (centres undefined)
?,CCOC(=O)c1cc(-c2ccc(Cl)cc2)nc2onc(C)c12
?,O=C(Nc1ccccc1-c1nc2ccccc2s1)c1cccnc1

(listing goes on)
HPGD block,molecule
-18%,CCCCCc1c(C)nc(Nc2ccccc2)[nH]c1=O
-11%,CSc1nccc(Oc2cccc(C#N)c2)n1
-11%,Cc1ccc2nc(SCC(=O)c3ccc4c(c3)OCO4)[nH]c2c1
-3%,O=C(O)CC1Sc2nc3ccccc3n2C1=O (centres undefined)

An excerpt; count on the stated rates, not on these rows.
